# Source: PubChem BioAssay
# Env fusion inh: blocks HIV Env-driven cell-cell fusion | HeLa-JRFL Env/CEM21 cell fusion, luciferase | inhibition, % at 12.3 µM | actives 1.1% (n = 360,000) | AID 651610;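 active means mean replicate inhibition score of at least 50 and every replicate individually at or above 50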;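 further: 0% = plate neutral controls and 100% = maraviroc near 300 nM; one replicate is shown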
# PABP polyA inh: PABP-poly(A) binding inhibition | P11940 | PABP-poly(A) RNA binding, fluorescence polarization | inhibition, % at 35 µM | actives 1% (n = 290,000);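 active means 50% or more with normal probe brightness, or confirmed in later tests; about a fifth of its hits are not listed in these tables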;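 further: calls also rest on retests at 20 µM and on dose response follow-up; controls were probe without protein and protein plus probe with vehicle; some compounds called inactive have numbers as strong as hits; many hits fall short of the cut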
# Target sequence (P11940 whole entry, looked up): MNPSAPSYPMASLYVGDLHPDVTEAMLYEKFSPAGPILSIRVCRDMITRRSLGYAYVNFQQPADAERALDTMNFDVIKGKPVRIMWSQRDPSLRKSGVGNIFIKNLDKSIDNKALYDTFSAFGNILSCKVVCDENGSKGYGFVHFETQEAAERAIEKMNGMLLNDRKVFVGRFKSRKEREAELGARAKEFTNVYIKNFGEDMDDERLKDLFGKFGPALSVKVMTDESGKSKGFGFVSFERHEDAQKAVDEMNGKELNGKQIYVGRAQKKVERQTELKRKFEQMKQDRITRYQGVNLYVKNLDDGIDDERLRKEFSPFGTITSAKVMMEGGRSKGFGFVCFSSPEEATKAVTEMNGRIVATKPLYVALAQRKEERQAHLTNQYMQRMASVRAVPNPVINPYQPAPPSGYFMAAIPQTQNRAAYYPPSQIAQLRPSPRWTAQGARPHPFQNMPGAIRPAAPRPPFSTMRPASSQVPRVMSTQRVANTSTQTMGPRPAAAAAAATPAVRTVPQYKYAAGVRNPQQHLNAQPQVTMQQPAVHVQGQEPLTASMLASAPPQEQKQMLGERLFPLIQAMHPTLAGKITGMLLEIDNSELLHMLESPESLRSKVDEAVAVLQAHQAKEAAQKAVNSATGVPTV
# UUG fidelity: alters start codon recognition fidelity in yeast | S. cerevisiae UUG-firefly luciferase reporter, luminescence/redox ratio | activity score, % at 18.7 µM | actives 0.13% (n = 350,000);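 active means replicate mean at a twofold rise or more, about +100% in these data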;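 further: firefly luciferase made from a UUG start codon reports start codon fidelity; reporter light over untreated wells divided by growth signal over untreated wells; some hits fall short of that in this replicate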
# eIF4H FP inh: inhibitors of RNA binding by human eIF4H; Q15056; eIF4H fluorescence polarization binding assay; actives 0.94% (n = 290,000); inhibition, % at 35 µM; AID 2012;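 active means 50% or more with normal probe brightness, or confirmed in later tests; about a fifth of its hits are not listed in these tables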;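 further: calls also rest on retests at 20 µM and on dose response follow-up; 0% = protein and probe with vehicle and 100% = probe without protein; strong numbers were not always called active; many hits fall short of the cut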
# MT1-MMP act inh: inhibitors of human MT1-MMP activation; GFP/RFP ratio change, % at 20 µM; actives 0.061% (n = 360,000); P50281; HT1080 RFP-PRO-GFP cells, GFP/RFP ratio fluorescence, overnight; percent of plate control window, DMSO zero;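 active means GFP/RFP ratio change of at least 30% with cell ATP level not reduced by more than half and red fluorescence within 50% of control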; further: strong numbers were not always called active
#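 Assay system: HT1080 RFP-PRO-GFP cells. Benchmarks: DMSO vehicle wells and RFP-L50D-GFP reporter cell wells. Times: overnight cell settling, then overnight compound exposure, 37 °C, 5% CO2. Compound: 20 µM single dose, 1% DMSO. Read-out basis: GFP/RFP fluorescence ratio.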
# Rce1 inh: yeast Ras-converting enzyme inhibition | Q03530 | AID 2563 | calls only | yeast membranes, quenched prenylated peptide cleavage fluorescence | actives 0.27% (n = 290,000);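 active means fall in fluorescence gain of 50% or more versus controls, with final raw signal at or below 3038400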;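 further: plate controls were neutral control wells for no effect and wells lacking membranes for full effect; tested at 10 µM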
# CSC inhib: blocks cancer stem cells. cancer stem cell-like cells viability, luminescence. inhibition, % at 7.5 µM. actives 1.1% (n = 300,000). AID 2717;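 active means mean at 75% or more and at least half the replicates too; tested in HMLE shEcad cells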;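 further: 0% = median of negative and 100% = median of positive control wells; the first replicate is given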
# MT1-MMP act inh RFP: recorded beside MT1-MMP act inh, whose call it bears; RFP signal change, %; measured here: RFP expression control read;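 0 = vehicle wells; hits needed this value within 50% of zero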
# Numbers without * were called inactive; i = inactive; · = not tested or not shown; & = joins results of further samples.
item	compound	Rce1 inh	CSC inhib	eIF4H FP inh	MT1-MMP act inh RFP	PABP polyA inh	UUG fidelity	MT1-MMP act inh	Env fusion inh
1	O=C1CC(CSc2ccc(Cl)cc2)=NN1	i	23	10	-2	5	-16	8	-2
2	O=C(COC(=O)C1CCC1)NCc1ccc(Cl)cc1Cl	i	2	·	2	·	·	2	-15
3	CN(C)CCN1C(=O)C(=O)/C(=C(/O)c2ccc3c(c2)OCCO3)C1c1ccccn1 (stereo unspecified)	i	-8	5	3	12	·	-3	-16
4	CCOc1ccccc1N(C(=O)c1snc(C(N)=O)c1N)C(C(=O)NC1CCCC1)c1ccco1 (stereo unspecified)	i	-5	0	-2	3	5	-4	18
5	Cc1ccccc1NC(=O)c1ccc2c(c1)C(=O)N(CC(C)C)C2=O	i	-17	0	-2	-5	-8	2	8
6	OCCC1CN(Cc2nc(-c3ccc(F)cc3)cs2)CCN1CCc1ccccc1 (stereo unspecified)	i	54	1	-6	-12	·	2	16
7	CCc1nc(CN2CCCC(C(=O)c3ccc4c5c(cccc35)CC4)C2)c(C)[nH]1 (stereo unspecified)	i	16	-7	-7	0	·	2	34
8	CCCCN1C(Nc2ccccc2)=NC[C@@H]1Cc1ccccc1	·	2	·	7	·	-2	8	-4
9	COc1ccc(N(CC(=O)NC2CCCC2)C(=O)Cn2nnc(-c3ccc(C)cc3)n2)cc1	i	·	-3	-4	-14	-15	-5	2
10	CC(=O)c1ccc(Oc2ncnc3sccc23)cc1	i	-8	-2	-2	4	·	0	-22
11	CC(C)(C)C(=O)N1CCN(c2ncnc3scc(-c4ccccc4)c23)CC1	i	4	-8	-4	-8	3	-11	31
12	CC1CC(C)CN(S(=O)(=O)c2ccc(F)c(C(=O)NC3CCCCC3C)c2)C1 (stereo unspecified)	·	·	·	-1	·	-7	0	-30
13	CCOC(=O)C1CC(CN2C(=O)c3ccccc3C2=O)OC1=O (stereo unspecified)	·	·	·	4	·	-5	7	-5
14	Nc1ncc(-c2ccccc2)c(-c2ccc(O)cc2O)n1	i	2	19	-4	23	6	-17	30
15	COc1ccc(N(CC(=O)NCCSc2ccccn2)S(=O)(=O)c2ccccc2)c(OC)c1	i	-1	3	-1	-1	-8	-4	12
16	CCCCNC(=O)C1COc2ccccc2O1 (stereo unspecified)	i	-3	1	2	2	-11	0	·
17	Cc1noc(C)c1NC(=O)Nc1cccc2c1O[C@H](CN(C)S(=O)(=O)c1cn(C)cn1)[C@@H](C)CN([C@H](C)CO)C2=O	·	-1	·	1	·	5&0	2	24
18	OCC[C@H]1C[C@@H](O)[C@H](O)[C@@]2(CCc3ccccc3CO2)O1	·	-4	·	3	·	-2	6	-10
19	CN(Cc1ccc(F)cc1)C(=O)c1cccc(S(=O)(=O)N2CCN(Cc3ccccc3)CC2)c1	i	-13	·	-7	·	11	5	3
20	CC(c1ccccc1)N1CC(C(=O)NC2CCCC2)CC1=O (stereo unspecified)	i	-4	-3	2	-5	-11	-3	·
21	COc1cc2nc(SCC(N)=O)n(CCC3=CCCCC3)c(=O)c2cc1OC	i	0	-4	1	-10	-10	3	·
22	N#Cc1ccc(CSCC(=O)O)cc1	i	0	9	-1	6	6	1	·
23	CCOC(=O)CC1C(=O)NCCN1C1CCCC1 (stereo unspecified)	i	-10	5	3	-2	·	14	3
24	C/C(=N\NC(=O)c1ccoc1C)c1ccc(Br)s1	·	4	-5	4	-12	-7	2	-48
25	O=c1c2ccccc2sn1-c1cc(S(=O)(=O)N2CCOCC2)ccc1N1CCOCC1	i	·	-3	-5	3	6	-2	-35
26	NC(=O)C1CCN(Cc2cccc(OCc3ccccc3)c2)CC1	i	12	11	0	19	-20	2	-3
27	CN(C)C(CNC(=O)C1CCCN(C(=O)c2ccc(Cl)cc2)C1)c1ccco1 (stereo unspecified)	·	-4	8	2	12	-12	-2	-24
28	Cc1ccnc(SCc2ccc([N+](=O)[O-])cc2)n1	i	4	-5	3	-6	-16	8	-17
29	COc1ccc(-c2csc(NC(=O)c3ccccc3F)c2C(=O)O)cc1	i	-19	-6	3	18	·	3	16
30	O=C(Nc1ccc(Br)cc1)c1ccc(F)c(S(=O)(=O)NCc2cccs2)c1	i	41	-10	-23	6	·	-1	29

# Reprinted, nos. 18–30
item	compound	Rce1 inh	CSC inhib	eIF4H FP inh	MT1-MMP act inh RFP	PABP polyA inh	UUG fidelity	MT1-MMP act inh	Env fusion inh
18	OCC[C@H]1C[C@@H](O)[C@H](O)[C@@]2(CCc3ccccc3CO2)O1	·	-4	·	3	·	-2	6	-10
19	CN(Cc1ccc(F)cc1)C(=O)c1cccc(S(=O)(=O)N2CCN(Cc3ccccc3)CC2)c1	i	-13	·	-7	·	11	5	3
20	CC(c1ccccc1)N1CC(C(=O)NC2CCCC2)CC1=O (stereo unspecified)	i	-4	-3	2	-5	-11	-3	·
21	COc1cc2nc(SCC(N)=O)n(CCC3=CCCCC3)c(=O)c2cc1OC	i	0	-4	1	-10	-10	3	·
22	N#Cc1ccc(CSCC(=O)O)cc1	i	0	9	-1	6	6	1	·
23	CCOC(=O)CC1C(=O)NCCN1C1CCCC1 (stereo unspecified)	i	-10	5	3	-2	·	14	3
24	C/C(=N\NC(=O)c1ccoc1C)c1ccc(Br)s1	·	4	-5	4	-12	-7	2	-48
25	O=c1c2ccccc2sn1-c1cc(S(=O)(=O)N2CCOCC2)ccc1N1CCOCC1	i	·	-3	-5	3	6	-2	-35
26	NC(=O)C1CCN(Cc2cccc(OCc3ccccc3)c2)CC1	i	12	11	0	19	-20	2	-3
27	CN(C)C(CNC(=O)C1CCCN(C(=O)c2ccc(Cl)cc2)C1)c1ccco1 (stereo unspecified)	·	-4	8	2	12	-12	-2	-24
28	Cc1ccnc(SCc2ccc([N+](=O)[O-])cc2)n1	i	4	-5	3	-6	-16	8	-17
29	COc1ccc(-c2csc(NC(=O)c3ccccc3F)c2C(=O)O)cc1	i	-19	-6	3	18	·	3	16
30	O=C(Nc1ccc(Br)cc1)c1ccc(F)c(S(=O)(=O)NCc2cccs2)c1	i	41	-10	-23	6	·	-1	29

# The list goes on.
item	compound	Rce1 inh	CSC inhib	eIF4H FP inh	MT1-MMP act inh RFP	PABP polyA inh	UUG fidelity	MT1-MMP act inh	Env fusion inh
31	COC(=O)c1ccc(CNC(=O)Cn2cnnn2)cc1	i	2	-8	1	-3	-9	0	5
32	Cc1ccc(/C=c2\sc3nc(-c4ccco4)nn3c2=O)o1	i	-1	90*	3	67*	-4	-1	·
33	Cc1ccc(C)c(OCC(=O)NNC(=O)C2CC2)c1	·	-1	-8	1	-12	-10	2	1
34	CN1C(=O)Cc2cc(S(=O)(=O)N3CCN(c4ccc(Cl)cc4)CC3)ccc21	i	0	-7	3	-2	-15	1	-8
35	O=C(CN1CCN(CC(=O)Nc2ccccc2F)CC1)Nc1cccc(F)c1	i	·	-12	3	4	-6	2	-5
36	Cc1scc(C(=O)N/N=C/c2ccc(OCC(C)C)cc2)c1C	i	-4	8	6	14	-20	10	·
37	CC(C)(C)NC(=O)C(c1ccco1)N(C(=O)c1ccc(CN2CCOCC2)o1)c1ccccc1 (stereo unspecified)	i	-6	-3	0	4	-10	2	-13
38	CCO[C@@H]1OC(C(=O)N2CCN(Cc3ccccc3)CC2)=C[C@H](c2ccc(C(F)(F)F)cc2)[C@H]1CCCO	i	9	6	-6	4	-12	1	17
39	CCCCCn1c2c(c(=N)c3ccccc31)CCC2	i	12	·	-31	·	-6	2	19
40	O=S(=O)(c1cccc(-c2n[nH]c(=S)n2-c2cccc(C(F)(F)F)c2)c1)N1CCOCC1	·	6	·	-1	·	-1	1	-1
41	COc1ccc(C(=O)NCC(c2ccco2)N2CCc3ccccc3C2)cc1 (stereo unspecified)	i	4	·	3	·	-10	7	-7
42	COc1ccc(NC(=O)CC2C(=O)N(c3ccc(Cl)cc3)C(=S)N2CCc2ccccn2)cc1 (stereo unspecified)	i	12	-12	-8	7	-3	11	·
43	COc1c(C)cccc1C(=O)Nc1ccc(CN2CCCCC2)cc1	i	19	-4	4	-1	-16	2	-48
44	Cn1ccnc1SCC(=O)NCC(=O)Nc1ccc(F)c(F)c1F	·	-8	·	-2	·	-3	-1	·
45	COc1ccc(O)c(/C=N/NC(=O)c2cc(=O)[nH]c3ccccc23)c1	i	59	0	2	-5	·	4	13
46	CCOC(=O)c1c(C)n(C)c2ccc(OC)c(NS(=O)(=O)c3ccc(Cl)s3)c12	i	-3	-9	-7	-3	-1	2	-8
47	Cc1nn(-c2ccccc2)c(N)c1C(c1ccc(C(C)C)cc1)c1c(C)nn(-c2ccccc2)c1N	i	-6	-3	-2	-6	-15	-3	3
48	CCn1c2ccccc2c2cc(N=C3SC(CC(=O)Nc4ccccc4)C(=O)N3C)ccc21 (stereo unspecified)	i	·	-6	-1	-2	-12	6	19
49	Clc1nssc1=Nc1ccc(Br)cc1	i	·	3	-7	3	·	1	28
50	CCOc1ccc(N2C(=O)/C(=C\c3ccc(O)c(OC)c3)S(=O)(=O)C2c2cccc([N+](=O)[O-])c2)cc1 (stereo unspecified)	i	-5	-15	-2	-6	9	1	-5
51	Cc1ccccc1Cn1c(NC2CCCC2)nc2c1c(=O)[nH]c(=O)n2C	i	-11	-9	3	2	-4	5	-32
52	S=c1[nH]nc(C2CCCCC2)n1/N=C/C(Cl)=C\c1ccccc1	i	109*	0	1	-12	·	0	-38
53	CCOc1ccc(NC(=O)CN(C)C(=O)c2c(C)nn(-c3ccccc3)c2Cl)cc1OCC	i	-4	·	-4	·	9	-2	-3
54	Cc1c(C(Nc2ccccn2)c2ccccc2)c(=O)n(-c2ccccc2)n1C (stereo unspecified)	i	0	4	6	1	-16	2	·
55	Cc1cc(C(=O)COC(=O)Cc2ccc(Cl)cc2)c(C)n1C	·	0	·	3	·	-35	3	29
56	CSc1nc(C)cc(Oc2ccc(=O)n(C)n2)n1	i	0	-3	-2	0	-6	-5	-9
57	Cc1cc(C(=O)Nc2ccc(C#N)cc2)on1	i	10	-11	2	-5	-24	-2	-5
58	Cn1c2ccccc2c2c(C(=O)O)cn(C3CCCC3)c(=O)c21	i	6	2	0	36	-8	1	-1
59	COc1ccc(C(=O)N2CCN(c3ccccc3OC)CC2)cc1	i	-17	-11	-7	-6	-7	1	4
60	COc1cccc(-c2ccc(SCC(=O)NC3CCCC3)nn2)c1	i	-15	1	3	3	-6	4	-8
61	COc1ccc(Br)cc1CNCC1CCCO1 (stereo unspecified)	i	-8	-1	4	-3	-12	0	6
62	Cc1cc(NC(=NC2CC2)c2ccccc2)n(-c2ccccc2)n1	i	-17	5	3	-5	·	-5	7
63	O=C(NCc1cccnc1)c1ccc(Br)s1	i	-8	4	2	27	·	3	-18
64	OC(COCC(F)(F)C(F)(F)C(F)(F)C(F)F)Cn1c2ccc(Cl)cc2c2cc(Cl)ccc21 (stereo unspecified)	i	116*	7	-24	3	·	-22	·
65	CCOc1ccc(C(=S)N2CCN(C)CC2)cc1	·	-15	0	8	8	·	2	-13
66	CC(=O)NC1(c2ccccc2)CCN(C(=O)N2CCOCC2)CC1	i	16	5	2	9	-8	2	-21
67	CN1CCC(N(C)C(=O)c2cc(S(=O)(=O)N(C)c3ccccc3)ccc2Cl)CC1	·	-15	·	3	·	-8	-3	·
68	C=CCn1c(SCC(=O)Nc2sc3c(c2C#N)CCC(C)C3)nc2cc(C(=O)O)ccc2c1=O (stereo unspecified)	·	·	·	-1	·	-6	12	-2

# From compound 61 up to 62, as listed above:
item	compound	Rce1 inh	CSC inhib	eIF4H FP inh	MT1-MMP act inh RFP	PABP polyA inh	UUG fidelity	MT1-MMP act inh	Env fusion inh
61	COc1ccc(Br)cc1CNCC1CCCO1 (stereo unspecified)	i	-8	-1	4	-3	-12	0	6
62	Cc1cc(NC(=NC2CC2)c2ccccc2)n(-c2ccccc2)n1	i	-17	5	3	-5	·	-5	7

# The list is partial; rates above refer to the full screens.
